# Screening results (PubChem BioAssay)
# Vaccinia Venus: inhibitors of vaccinia virus (Venus reporter). AID 720580. Potency, µM (top dose mostly 36.5 µM), for the others: at the top dose activity change, negative = inhibition, actives largely listed as inhibitors. 330,000 tested, 0.46% active. Vaccinia virus Venus reporter expression, fluorescence; active means well fitted inhibition curve with a large enough effect; inconclusive means small, poorly fitted or top-dose-only effect; inactive means no such curve, though single readings can be large or run the other way; tested in A549 cells; note: nearly all actives have a fitted effect of over 30% in size; inactives centre near -10
# Vaccinia mCherry: vaccinia inhibition (mCherry reporter); Vaccinia virus mCherry reporter infection, fluorescence; about a quarter of the inactives have no number; 310,000 tested, 0.63% active; AID 720579; Potency, µM (highest dose often 36.5 µM), inactives show at the highest dose activity change, negative = inhibition, usual class: inhibitors; active = well fitted inhibition curve with a large enough effect; inconclusive = small, poorly fitted or top-dose-only effect; inactive = no such curve, though single readings can be large or run the other way; tested in A549 cells; note: nearly all actives have a fitted effect of over 35% in size; inactives centre near -10
# Numbers without * were called inactive; i = inactive; ? = inconclusive; nt = no result given; & = joins results of further samples; [ ] = another dose, or the depositor's remark. % is set by controls: 0 for no effect and ±100 for the full control effect; potency is the fitted concentration of half-maximal effect.
# The line under a structure holds: Vaccinia Venus | Vaccinia mCherry
> COc1cccc(OC)c1-c1nn2c(-c3cc(-c4ccccc4)n[nH]3)nnc2s1
  -24% | -24%
> Cc1ccc(C(=O)Nc2cc(Cl)ccc2-n2cncn2)s1
  -7% | i
> CO[C@H]1CN(C)C(=O)c2cc(NS(=O)(=O)c3ccccc3)ccc2OC[C@@H](C)N(Cc2ccccn2)C[C@@H]1C
  -13% | ?
> CC1CCN(c2nn3c(=O)c(C(=O)NCCc4ccccc4)cnc3s2)CC1
  -18% | -8%
> COc1cc(C2C(C(N)=O)=C(C)Nc3nc(CCCO)nn32)cc(OC)c1OC (configuration not stated)
  -1% | -7%
> O=C(NNc1ccc([N+](=O)[O-])cc1[N+](=O)[O-])C1C2CCCCC21 (configuration not stated)
  -20% | -3%
> CCOc1ccc(C(C)NC(=O)C2CCC2)cc1 (configuration not stated)
  1% | -10%
> Cc1ccc(Nc2nc(-c3ccc(C)cc3)c(CC(=O)O)s2)cc1
  10% | -12%
> CCCCCOc1ccc(NC(=O)Cc2csc(C)n2)cc1
  -10% | -5%
> CCOC(=O)c1c(NC(=O)c2cc(OC)c(OC)c(OC)c2)sc2c1CCCC2
  -3% | -9%
> CC12CCC3c4ccc(OC(=O)N(CCCl)CCCl)cc4CCC3C1CCC2O (configuration not stated)
  ? | -29%
> N#CCc1ccc(NC(=O)c2ccccc2C(=O)Nc2ccc(CC#N)cc2)cc1
  -10% | i
> CC1(C(=O)NS(=O)(=O)c2cccc(Cl)c2)CCN1C(=O)Cc1cc(F)ccc1F (configuration not stated)
  0% | -9%
> Clc1ccc(-c2cn3ncsc3n2)cc1
  -7% | -11%
> C=CCn1c(SC2CCOC2=O)nc2scc(C3CC3)c2c1=O (configuration not stated)
  ? | -21%
> Cc1ccc2c(C)c(C(=O)N(C)CCC3CCCCO3)oc2c1C (configuration not stated)
  -11% | -4%
> CCOc1ccc(OCC)c(S(=O)(=O)n2cc(C)nc2CC)c1
  -15% | -3%
> CC1Cc2ccccc2C[N+]1(C)CC(=O)c1ccc(I)cc1 (configuration not stated)
  10% | 46%[activator]
> COc1ccc(-n2ncc3c(=O)n(CC(=O)N(C(C)C)C(C)C)cnc32)cc1
  -6% | i
> COc1ccc(S(=O)(=O)N2CCCC(C(=O)N3CCN(Cc4ccccc4)CC3)C2)cc1Cl (configuration not stated)
  -29% | -19%
> Cc1cc(=O)[nH]c(N=N/C(=N/Nc2ccccc2C)c2ccccc2)n1
  -7% | nt
> O=C(NC(Cc1ccccc1)C(=O)O)/C(=C\c1ccco1)NC(=O)c1ccc(Br)cc1 (configuration not stated)
  0% | -6%
> CCCCN(C(=O)c1ccc(NC(=O)C(C)C)cc1)c1ccccc1
  -14% | -1%
> CC(=O)Nc1ccc(CC(=O)NCCC(c2ccccc2)c2ccccc2)cc1
  -19% | -27%
> CCOC(=O)C1CCN(C(=O)c2ccccc2N(C)S(=O)(=O)c2ccccc2)CC1
  -23% | -26%
> O=C(CSc1ccc(-c2ccc(F)cc2)nn1)NC1CCCCC1
  0% | -1%
> CC(=O)Nc1cccc(NS(=O)(=O)c2cn(C)c(=O)n(C)c2=O)c1
  -8% | i
> COc1ccccc1-n1c(-c2ccc(C)cc2)cn2c3c(=O)n(C)c(=O)n(C)c3nc12
  -11% | -11%
> COc1ccc(NC(=S)Nc2cc(C)ccn2)c(OC)c1
  -14% | i
> COc1cccc(C(=O)NC2CC(C)(C)Cc3c2cnn3-c2cccc(F)c2)c1OC (configuration not stated)
  -5% | -18%
> Cc1ccc(S(=O)(=O)N(C)C[C@H]2Oc3ccc(NC(=O)C4CCCCC4)cc3C(=O)N([C@H](C)CO)C[C@H]2C)cc1
  ? | i
> CCCCCC(=O)N1C[C@@H](O)[C@H](n2cc(-c3ccc(F)cc3)nn2)C[C@@H]1c1ccccc1
  -10% | 4%
> Cc1ccc(C)c(OCc2cc(C(=O)N3CCN(c4ccccc4C)CC3C)no2)c1 (configuration not stated)
  -18% | -23%
> CCCCOCCCNC(=O)c1c(-c2ccccc2)noc1C
  -25% | nt
> C(=N\Nc1nc(N2CCCC2)nc(N2CCCC2)n1)/c1cccnc1
  8% | i
> CN(C)CCCn1c2c(c(SCC(=O)Nc3cccc4ccccc34)nc1=O)CCC2
  -11% | ?
> O=C(c1ccco1)N1CCN(S(=O)(=O)c2ccc3c(c2)CCN3C(=O)C2CCC2)CC1
  -23% | -25%
> CN(CC(=O)Nc1ccc(Cl)cc1)CC(=O)Nc1cccc(Br)c1
  -11% | -5%
> CCOC(=O)c1cnc2c(ccc3ccccc32)c1NCCO
  ? | nt
> Cc1ccc(Nc2nc(-c3sc(NC(=O)c4ccccc4)nc3C)cs2)cc1
  -12% | -30%
> COCCN1C(=O)c2ccccc2C(C(=O)NCCCN2CCCC2)C1c1c[nH]c2ccccc12 (configuration not stated)
  9% | nt
> C/C(=C\C(=O)c1ccc(F)cc1)NCc1ccc2c(c1)OCO2
  -11% | i
> Clc1cccc(Cc2c(-c3cccc(Cl)c3)nc3ccc(Cl)cn23)c1
  7% | i
> COc1ccc(C(=O)Oc2cc(N)n(S(=O)(=O)c3ccc(C)cc3)n2)cc1
  -11% | -24%
> Cc1ccc(S(=O)(=O)N(C)CC(=O)N(CC(C)C)C2CCS(=O)(=O)C2)cc1 (configuration not stated)
  -14% | i
> CCc1ccccc1NC(=O)CN(C)C(=O)Cn1cnc2ccc(Cl)cc2c1=O
  -25% | -9%
> CC(C)(C)n1nc2c(c1NC(=O)c1ccc(C(F)(F)F)cc1)CS(=O)(=O)C2
  -7% | 2%
> CCc1cc(C(=O)OC)c(NC(=O)CSc2nccn2C)s1
  -27% | -14%
> CCC(=O)Nc1ccc(C(=O)OCc2ccccc2Cl)cc1
  -1% | -10%
> Cc1ccc(CSc2nc3nc(C)cc(C)n3n2)cc1
  -8% | i

# Next part:
# The line under a structure holds: Vaccinia Venus | Vaccinia mCherry
> CCOC(=O)C1CCCN(c2ncnc3c2oc2ccccc23)C1 (configuration not stated)
  -18% | nt
> c1nc(N2CCCCCC2)c2[nH]cnc2n1
  -29% | ?
> CC1CCN(C(=O)Cn2c(=O)n(CCc3ccccc3)c(=O)c3ccccc32)CC1
  -6% | nt
> CCCc1nn2c(=O)cc(COC(=O)c3ccc(NC(=O)COc4ccc(F)cc4)cc3)nc2s1
  -12% | i
> CC(C)=CCC[C@](C)(O[C@@H]1O[C@H](CO[C@@H]2O[C@H](CO)[C@@H](O)[C@H](O)[C@H]2O)[C@@H](O)[C@H](O)[C@H]1O)C1CC[C@]2(C)C1C(=O)CC1[C@@]3(C)CC[C@H](O[C@H]4O[C@@H](CO)[C@H](O)[C@@H](O)[C@@H]4O)C(C)(C)C3CC[C@]12C (some centres not stated)
  -5% | i
> CC(c1ccccc1)N1CCn2c(nc3cc(NS(C)(=O)=O)ccc32)C1 (configuration not stated)
  -20% | -9%
> COc1ccc(N2CCN(C(=O)c3cccc(Cn4cc(Cl)cn4)c3)CC2)cc1
  -12% | i
> COc1ccccc1CNS(=O)(=O)c1ccc(NC(C)=O)cc1
  -10% | -19%
> CC(C)c1ccc(CC(=O)N2CCC2(C)C(=O)NS(=O)(=O)c2ccc(C(C)(C)C)cc2)cc1 (configuration not stated)
  -2% | 47%[activator]
> CC(C)OCCCN1C(=O)c2[nH]nc(-c3ccccc3O)c2C1c1cccc(OCc2ccccc2)c1 (configuration not stated)
  ? | ?

# Five entries already listed, arranged by count of non-hydrogen atoms, smallest number first.
# The line under a structure holds: Vaccinia Venus | Vaccinia mCherry
> CCOC(=O)C1CCCN(c2ncnc3c2oc2ccccc23)C1 (configuration not stated)
  -18% | nt
> CC(c1ccccc1)N1CCn2c(nc3cc(NS(C)(=O)=O)ccc32)C1 (configuration not stated)
  -20% | -9%
> COc1ccc(N2CCN(C(=O)c3cccc(Cn4cc(Cl)cn4)c3)CC2)cc1
  -12% | i
> CC1CCN(C(=O)Cn2c(=O)n(CCc3ccccc3)c(=O)c3ccccc32)CC1
  -6% | nt
> CC(C)c1ccc(CC(=O)N2CCC2(C)C(=O)NS(=O)(=O)c2ccc(C(C)(C)C)cc2)cc1 (configuration not stated)
  -2% | 47%[activator]

# Further entries follow.
# The line under a structure holds: Vaccinia Venus | Vaccinia mCherry
> COC(=O)c1nnn(CC(=O)Nc2cc(Cl)ccc2C)c1C(=O)OC
  -9% | -12%
> Cn1cc(CNC(=O)c2ccc3nc(Cc4ccccc4F)oc3c2)cn1
  -18% | -4%
> O=C(CN1CCN(c2ccc([N+](=O)[O-])cc2Cl)CC1)N1CCOCC1
  -6% | i
> CCc1ccc(C2CC(=O)NC(NC(=O)c3ccc(C(C)(C)C)cc3)=N2)cc1 (configuration not stated)
  -21% | -27%
> CNC(=O)[C@H]1O[C@@H](n2cnc3c(NCc4cccc(I)c4)nc(Cl)nc32)[C@H](O)[C@@H]1O
  -8%&-18% | -27%
> CN1CCN(c2nc3c(c(=O)n(C)c(=O)n3C)n2Cc2cccc3ccccc23)CC1
  1% | nt
> Cc1cc(NC(=O)c2cc(-c3ccc(Br)cc3)on2)nn1Cc1ccc(Cl)cc1
  -16% | -16%
> COc1ccc(/C=N/NC(=O)c2ccncc2)cc1CN1CCOCC1
  -5% | i
> Cc1cccc(NC(=O)CN2C(=S)NC(C)(C)CC2C)c1 (configuration not stated)
  -12% | -5%
> CC(C)c1ccccc1N=C1SCCCN1C(=O)c1cccc(N2C(=O)CCC2=O)c1
  -21% | -21%

# Compound profiles, as listed above:
# Listed for COc1ccccc1CNS(=O)(=O)c1ccc(NC(C)=O)cc1 → Vaccinia Venus = -10%; Vaccinia mCherry = -19%
# Listed for CC(=O)Nc1cccc(NS(=O)(=O)c2cn(C)c(=O)n(C)c2=O)c1 → Vaccinia Venus = -8%; Vaccinia mCherry = i

# (list continues)
# The line under a structure holds: Vaccinia Venus | Vaccinia mCherry
> Cc1cc(NCCN2CCOCC2)n2ncc(-c3ccccc3)c2n1
  -14% | nt
> O=C(c1ccc(Cl)c(Cl)c1)c1cc(-c2ccccn2)c(N2CCOCC2)s1
  -14% | -21%
> Cc1cc(C)n(CC(O)Cn2c3ccc(Br)cc3c3cc(Br)ccc32)c(=O)n1 (configuration not stated)
  -18% | -26%
> COc1ccc(CCNC(=O)CSCc2nc(-c3cccc(C)c3)oc2C)cc1OC
  -21% | -19%
> Cc1ccccc1CSc1nnc(-c2cnccn2)n1C
  -22% | i
> CCn1nnnc1NCc1ccc(N2CCCC2)cc1
  -1% | -8%
> COc1cccc(NC(=S)NNC(=O)Cn2nc(C(F)F)cc2C(F)F)c1
  -18% | -15%
> CCOc1ccc2c(c1)c(=O)c(S(=O)(=O)c1ccc(CC)cc1)cn2CC
  -25% | -12%
> COc1ccc(C(=O)Nc2cccc(C(=O)OCc3cc(=O)n4nc(C5CC5)sc4n3)c2)cc1
  -8% | i
> CCOC(=O)c1ccccc1NC(=O)CCNC(=O)Cn1cnc2ccccc2c1=O
  -9% | -14%
> O=C(CS(=O)Cc1ccccc1Cl)Nc1ccccc1Cl (configuration not stated)
  -6% | -18%
> CCC(C)NC(=O)C(Sc1ccccc1)c1ccccc1 (configuration not stated)
  -14% | -1%
> Cc1cc(=O)[nH]c2nnc(SCc3cccc(C(F)(F)F)c3)n12
  -18% | -12%
> O=C(O)c1ccc(Cl)c(S(=O)(=O)NCc2cccnc2)c1
  -3% | -13%
> N#Cc1nc(-c2ccco2)oc1NCc1ccccc1Cl
  -10% | 0%
> CC(C)(C)C1=C[C@@H](CO)C[C@@H](CO)C1
  -14% | nt
> COc1ccc(CCNC(=O)c2c(C)oc3ncn(CC(C)C)c(=O)c23)cc1OC
  -3% | i
> N#Cc1ccc(Cl)cc1NC(=O)CN1C(=O)C(=O)N(CCC2=CCCCC2)C1=O
  -16% | ?
> O=C(CC1C(=O)CCCC1=O)c1ccccc1
  -4% | -13%
> Cc1ccc(C)c(NC(=O)CN(C)C(=O)c2cccc(N3C(=O)CCC3=O)c2)c1
  -2% | -15%
> Cc1ccccc1NC(=O)c1cc2c([nH]c1=O)CC(C)(C)CC2=O
  -9%[7.34 µM] | -11%[7.34 µM]
> Cc1ccccc1CC(=O)Nc1ccc2c(c1)CCC2
  -4% | i
> Cc1cccc(S(=O)(=O)Nc2nc3ccccc3nc2OC(C)C)c1
  -8% | -13%
> Cc1ccc(S(=O)(=O)NC(C)(C)CSc2nncn2N)cc1
  -16% | nt
> CC(C)C(NC(=O)C12CC3CC(CC(C3)C1)C2)C(=O)N/N=C/C1=C(N2CCOCC2)C(=C\c2cccc([N+](=O)[O-])c2)/CC1 (configuration not stated)
  -7% | -6%
> CC(=O)c1cccc(NCC(=O)c2ccc(C)c([N+](=O)[O-])c2)c1
  -10% | ?
> COc1cccc(C(=O)CSc2nc3ccccc3n2CC(=O)N2CCOCC2)c1
  -5% | -12%
> O=S1(=O)CCC(NS(=O)(=O)c2ccc3ccccc3c2)C1 (configuration not stated)
  13% | -15%
> O=C(Cc1ccc(S(=O)(=O)N2CCOCC2)s1)NCC(=O)Nc1ccccc1Br
  -5% | -5%
> Cc1cc(C)cc(OCc2nnc(SCC(=O)N3CCN(c4ccccc4)CC3)o2)c1
  -12% | nt
> CC(C)C(=O)OC1=CN(Cc2ccccc2)S(=O)(=O)c2ccccc21
  ? | ?
> O=C1C=C(NC2CCCCC2)CCC1
  -1% | i
> O=C(N1CCOCC1)N1c2ccccc2CC(N2CCOCC2)c2ccccc21 (configuration not stated)
  -14% | nt
> O=C1N=C(N2CCOCC2)S/C1=C\c1cccnc1
  1% | -10%
> CCOC(=O)C[C@H]1c2cc(F)ccc2S(=O)(=O)N1C(C)(C)C
  -19%&-13% | -7%&-15%
> CN(C(=O)c1ccc(NC(=O)Cc2ccc(NC(=O)C3CCCN(C(=O)c4ccccc4)C3)cc2)cc1)C1CCCC1 (configuration not stated)
  -8% | -6%
> CCC(=O)NC(=S)Nc1ccc(S(=O)(=O)NC(C)=O)cc1
  -19% | nt
